TRPML1 blocker: inhibitors of human TRPML1 channel. TRPML1-inducible cells, Ca2+ dye fluorescence, FDSS; hits give low values; inhibition of EC80 agonist-evoked calcium signal. activity change, negative = inhibition, % (no concentration beside the values). actives 0.02% (n = 390,000); in the data active means activity change below about -50%; inconclusive means about -30% to -50%; inactive means above about -30%;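 further: stimulus is agonist 54-4 at its EC80 concentration; on the % scale 0 is the no-effect control and ±100 the full control effect; compound concentration not given in the record; the text of the record puts the active cut at -80%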
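TRPML1-DL cells, Tet-induced overnight (~16 h, 37 °C) at 1,500 cells/well, were loaded with Ca8 no-wash dye plus quencher for 45-90 min at room temperature. Compounds were pinned during FDSS kinetic reading; agonist 54-4 at EC80 (4 uM final) then added.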
CtBP-E1A blk: CtBP/E1A binding inhibition; actives 0.49% (n = 340,000); activity change, % (no concentration beside the values); AID 651724; AlphaScreen GST-E1A/His-CtBP binding, 1536-well; hits give low values; control for the full effect not named in the record; in the data active means activity change below about -65%; inconclusive means about -30% to -65%; inactive means above about -30%; further: on the % scale 0 is the no-effect control and ±100 the full control effect; compound concentration not given in the record
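Homogeneous bead-based format: GST-tagged E1A captured on glutathione donor beads, His-tagged CtBP on nickel acceptor beads; compounds precede bead addition by 2 h at 37 °C.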
Six1-Eya2 inh: inhibitors of human Six1/Eya2 interaction; actives 0.56% (n = 360,000); AlphaScreen GST-Six1/His-Eya2 binding, biochemical; hits give low values; control for the full effect not named in the record; Q15475+O00167; activity change, % (test concentration not listed); in the data active = activity change below about -65%; inconclusive = about -30% to -65%; inactive = above about -30%; further: on the % scale 0 is the no-effect control and ±100 the full control effect; compound concentration not given in the record
Target sequence (O00167 whole entry, looked up): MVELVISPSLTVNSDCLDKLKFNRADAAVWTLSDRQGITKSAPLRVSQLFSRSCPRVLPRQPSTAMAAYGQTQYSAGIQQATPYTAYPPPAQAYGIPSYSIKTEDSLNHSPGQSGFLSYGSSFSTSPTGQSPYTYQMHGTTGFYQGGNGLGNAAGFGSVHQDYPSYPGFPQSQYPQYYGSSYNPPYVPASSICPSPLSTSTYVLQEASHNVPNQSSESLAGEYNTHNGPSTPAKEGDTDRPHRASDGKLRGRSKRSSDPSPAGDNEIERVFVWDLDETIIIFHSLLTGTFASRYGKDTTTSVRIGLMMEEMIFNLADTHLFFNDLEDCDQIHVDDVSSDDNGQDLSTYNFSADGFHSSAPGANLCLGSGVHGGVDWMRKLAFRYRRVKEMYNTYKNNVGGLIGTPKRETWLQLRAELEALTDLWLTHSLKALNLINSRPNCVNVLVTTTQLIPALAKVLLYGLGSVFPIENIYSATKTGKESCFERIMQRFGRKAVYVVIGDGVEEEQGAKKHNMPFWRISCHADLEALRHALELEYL
Target sequence (Q15475 whole entry, looked up): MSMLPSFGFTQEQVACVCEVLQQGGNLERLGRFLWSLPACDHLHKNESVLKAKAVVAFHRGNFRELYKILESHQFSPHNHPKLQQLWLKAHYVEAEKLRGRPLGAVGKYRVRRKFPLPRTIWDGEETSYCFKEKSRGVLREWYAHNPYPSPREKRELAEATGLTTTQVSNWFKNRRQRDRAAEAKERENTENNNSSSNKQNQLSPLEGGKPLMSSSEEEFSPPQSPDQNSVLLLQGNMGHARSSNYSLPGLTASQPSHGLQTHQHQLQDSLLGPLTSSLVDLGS
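GST-Six1 + His-Eya2 (5X stock: 250/500 nM); Tris pH 8.0, 300 mM NaCl, 0.05% BSA, 0.02% Tween 20; GSH donor/Ni acceptor beads; 1 h 37 °C dark; AlphaScreen readout.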
PINK1 expr mod: modulators of PINK1 expression. PINK1 immunofluorescence, high-content cytometry, 24 h. Potency, µM (top dose mostly 76.6 µM), for inactives: at the highest dose activation (PINK1 increase), most hits filed as activators. actives 0.2% (n = 410,000); active = well fitted activation curve with a large enough effect; inconclusive = small, poorly fitted or top-dose-only effect; inactive = flat fitted curve, though single readings scatter; cell line not stated here;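 further: potency means the concentration at half of the fitted maximal effect; % of control where 0% means no effect; nearly all actives have a fitted effect of over 65% in size; a mitochondrial uncoupler was the plate control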
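Compound titrations (5 concentrations, 24 h) on a stable cell line; DMSO and CCCP controls. Endpoint: fixed-cell PINK1 immunofluorescence with mitochondrial, cell and nuclear markers, scanned by microplate cytometer.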
D2 ag: activates the human D2 dopamine receptor. P14416. DiscoveRx PathHunter D2 beta-arrestin, luminescence, 90 min; 100% = 57 uM dopamine signal. activation, % (test concentration not listed). actives 0.084% (n = 360,000); in the data active = activation above about 40%; inconclusive = about 15% to 40%; inactive = below about 15%; further: compound concentration not given in the record; the text of the record calls up to 30% inactive
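Agonist mode: compounds alone added to overnight-plated D2 PathHunter cells for 90 min at 37 C, with 57 uM final dopamine (EC100) defining full response. Beta-arrestin recruitment detected by chemiluminescent reagent, read after 1 h at ambient temperature.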
TRPML1 agonist: agonists of human TRPML1 channel | Q9GZU1 | TRPML1-expressing cells, Ca2+ dye fluorescence, FDSS; host cell line not named in the record; reference of the full effect not given here | activation, % (test concentration not listed) | actives 0.12% (n = 410,000) | AID 624414; in the data active = activation above about 50%; inconclusive = about 30% to 50%; inactive = below about 30%; further: 0% is about no effect; the text of the record puts the active cut at 80%
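TRPML1-DL cells, Tet-induced overnight (~16 h, 37 degrees C), loaded 45-90 min at room temperature with Ca8 no-wash calcium dye plus quencher. FDSS fluorescence: 10 s baseline, compound pin-transfer, 110 s agonist read, then EC80 54-4 (4uM final) and 110 s antagonist read.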
* = called active by the depositor; ? = inconclusive; nt = not tested or not shown; & = joins results of further samples.

SMILES | TRPML1 blocker | Six1-Eya2 inh | TRPML1 agonist | CtBP-E1A blk | D2 ag | PINK1 expr mod
COc1cccc(NC(=O)C(=O)NCCc2csc(-c3ccc(C(F)(F)F)cc3)n2)c1 | 12 | nt | 4.2 | nt | nt | 2.0%
O=S(=O)(c1ccc(Cl)cc1)n1nnc2ccccc21 | 6 | 6 | -0.5 | 1 | 0.2 | -0.9%
O=C1NC(Cc2ccc(O)cc2)c2nc3cc(F)c(F)cc3c(=O)n2-c2ncccc21 (stereo not drawn) | nt | -6 | nt | 0 | -3.9 | -0.3%
Cc1c(Cc2ccc3c(c2)OCO3)sc(NC(=O)c2ccccc2)c1C(N)=O | 3 | 3 | 0.5 | 5 | -3.2 | 5.2%
CC(=O)Nc1ccc(S(=O)(=O)Nc2cccc(NC(=O)C(C)(C)C)c2)cc1 | 8 | 2 | 0.4 | 0 | -3.3 | 1.4%
O=C(CCCOc1ccc(Cl)cc1Cl)Nc1ncccn1 | 5 | 14 | 0.5 | 5 | -1.8 | -0.6%
COc1cccc(OC)c1C(=O)Nc1ccc2c(c1)OCCO2 | 2 | 1 | 1.2 | 13 | -2.0 | 4.9%
COc1cccc2c1Oc1ncccc1N(c1ccc(C(=O)NCc3ccccc3Cl)s1)C2 | -18 | nt | -0.6 | nt | nt | -2.1%
O=C(CCc1cccc(Cl)c1)N1CCCC(Nc2ccccc2)C1 (stereo not drawn) | 3 | -13 | -0.1 | -3 | -4.9 | 1.0%
O=C(CN1C(=O)NC2(CCCC2)C1=O)OCCOc1ccccc1 | 10 | -2 | 1.2 | -1 | -1.5 | -0.3%
CC1=C(C(N)=O)C(c2cccc(Br)c2)n2nc(SCc3ccccc3)nc2N1 (stereo not drawn) | -7 | nt | 0.2 | nt | nt | -0.5%
COCCNC(=O)c1ccc(N2CC3CC(C2)c2cccc(=O)n2C3)c(NC(=O)c2ccc(C(C)(C)C)cc2)c1 (stereo not drawn) | 0 | 10 | -0.3 | 9 | -0.1 | 3.3%
CC1=C(C(=O)OCc2ccccc2)C(c2ccc(N3CCOCC3)cc2)NC(=O)N1 (stereo not drawn) | -9 | -6 | -0.6 | -3 | 0.3 | 2.5%
COc1ccc(OC)c(NC(=O)NNC(=O)CCCOc2ccc(Cl)cc2C)c1 | -24 | -7 | 1.2 | -24 | 0.3 | -0.1%
CCC1C(=O)CC(c2ccc([N+](=O)[O-])cc2)NC1c1ccc([N+](=O)[O-])cc1 (stereo not drawn) | 9 | ? | 0.7 | -9 | -1.3 | 1.9%
c1cc2c(cc1Cn1cnnn1)OCO2 | 9 | -9 | 1.3 | -9 | -2.6 | -2.7%
Cc1cnc(C(=O)Nc2nnc(SCc3c(Cl)cccc3Cl)s2)cn1 | 7 | -20 | -0.1 | ? | 2.5 | 4.9%
COc1ccc(S(=O)(=O)NCCc2sc(-c3cccc(F)c3)nc2C)cc1 | 69 | nt | -0.3 | nt | nt | -0.1%
CCCCn1c(N)c(N(CCC(C)C)C(=O)c2cc(CC)c(C)s2)c(=O)[nH]c1=O | -7 | 4 | 0.1 | 3 | -3.7 | 8.9%
O=C(Nc1cccc(Cl)c1)NC1CC2CCC(C1)N2Cc1ccco1 (stereo not drawn) | 15 | -1 | 1.1 | nt | 1.4 | 4.1%
CCOc1ccccc1Nc1nnc(SCC(=O)NC2CCS(=O)(=O)C2)s1 (stereo not drawn) | 2 | -2 | -0.4 | 2 | -0.1 | 0.5%
O=C(NCC(O)COc1ccc([N+](=O)[O-])cc1)Nc1ccccc1 (stereo not drawn) | -10 | 4 | -0.2 | -5 | -2.2 | 1.9%
COc1ccc(C(=O)OC(C)C(=O)NC(C)CCc2ccccc2)c(OC)c1 (stereo not drawn) | 14 | 14 | 3.9 | 37 | 0.8 | -0.1%
CCc1ccc(S(=O)(=O)Nc2ccc(-c3nc4cccnc4s3)cc2)s1 | -3 | -2 | 1.1 | 9 | 7.6 | 8.8%
CCN(C(=O)c1cccn(Cc2ccccc2C)c1=O)c1ccccc1 | -14 | nt | 2.0 | nt | nt | -4.7%
O=C(Cc1ccc(Br)cc1)OCC(=O)N1CCCCCC1 | 57 | -5 | -0.6 | 4 | -2.0 | 4.5%
CN(C)c1ccccc1C(=O)N1CCCC(C(=O)c2ccc3ccccc3c2)C1 (stereo not drawn) | 40 | 2 | 0.4 | 24 | -4.3 | 8.2%
CCOC(=O)N1CCC(N2C(=O)c3ccc(C(=O)O)cc3C2=O)CC1 | 5 | -5 | -0.8 | 0 | -1.4 | 1.0%
O=C(Nc1cccc(NC(=O)c2cccs2)c1)c1ccc2c(c1)OCCO2 | 5 | -6 | 4.6 | -5 | -0.4 | -0.5%
N#Cc1nc(-c2ccc(OCc3ccccc3)cc2)oc1NCc1cccnc1 | -5 | -24 | -1.3 | -13 | 2.5 | 3.6%
CCOC(=O)CNc1nc(C#N)nc(N2CCOCC2)n1 | 31 | 2 | 0.5&-0.3 | 0 | -0.7 | -1.4%&0.8%
Cc1ccc2nc3c(c(Nc4cccc(O)c4)c2c1)CCC3 | -18 | -6 | -0.6 | -1 | -6.1 | 6.2%
CCCC(=O)N(CCN(Cc1ccccc1)C(=O)CCC)Cc1ccccc1 | -2 | -8 | 0.0 | -15 | -4.2 | 3.2%
O=C(Nc1ncccc1O)c1cccc(S(=O)(=O)N2CCCC2)c1 | 0 | -1 | -0.2 | 7 | 0.8 | -5.3%
Cc1ccc(-c2c(C(=O)N/N=C/c3ccc(OC(C)C)cc3)nnn2-c2nonc2N)cc1 | 5 | 0 | 1.4 | nt | -1.7 | 0.9%
CC1=C(C(=O)OCC(C)C)C(c2ccsc2)C2=C(CCCC2=O)N1 (stereo not drawn) | 7 | 1 | -0.1 | -7 | -1.6 | 3.5%
Cc1nnc(-c2cccc(Br)c2)c2cn(-c3ccccc3)nc12 | -3 | -1 | 1.7 | -6 | -0.9 | 2.1%
CCOC(=O)c1sc(-c2ccc(F)cc2)cc1N | 18 | 9 | 3.1 | 9 | -2.0 | ?
COc1cccc(C(c2c(NC(=O)c3ccccc3)sc(C)c2C)N2CCN(C)CC2)c1 (stereo not drawn) | 11 | 3 | 1.3 | 6 | 0.7 | 14%
CC(=O)c1cccc(NC(=O)Cn2nc(C)n3cccc3c2=O)c1 | 10 | nt | -0.4 | nt | nt | 0.8%
CCc1nc2ccc(C(=O)N(C)Cc3ccccc3)cn2c1N(C)Cc1ccc(OC)cc1 | nt | -11 | -1.1 | -9 | 3.0 | ?
Cc1nn(-c2ccccc2)c(Cl)c1/C=C/C(=O)c1ccccc1 | -2 | 0 | -0.9 | -3 | -6.5 | -0.2%
COc1cccc(CCNC(=O)CC2C(=O)NCCN2Cc2ccc(Cl)c(F)c2)c1 (stereo not drawn) | 6 | 8 | 0.0 | 1 | 1.3 | -1.4%
CCOc1ccc(C2C(C(=O)c3ccco3)=C(O)C(=O)N2Cc2cccnc2)cc1 (stereo not drawn) | -1 | -1 | -0.2 | 4 | -6.6 | -0.9%
CCN(CC)S(=O)(=O)c1ccc(Cl)c(C(=O)Nc2nncs2)c1 | 10 | 7 | -0.6 | -4 | 0.0 | 0.3%
Cc1ncc(CN2CCCC(C(=O)Nc3ccc(-c4cccc(F)c4)cc3)C2)cn1 (stereo not drawn) | ? | 0 | 0.3 | -1 | 0.5 | 0.4%
COC(=O)c1cc(NC(=O)CCc2c(C)nc3ncnn3c2C)cc(C(=O)OC)c1 | 9 | -1 | 1.6 | -12 | -1.7 | 6.2%
C=CCn1c(=N)c(S(=O)(=O)c2ccc(C)c(C)c2)cc2c(=O)n3ccccc3nc21 | -13 | 1 | 0.8 | nt | -0.6 | 6.0%
Cc1noc(-c2ccc(-c3noc(-c4ccc(C(F)(F)F)cc4)n3)cc2)n1 | 4 | nt | 0.7 | nt | nt | 3.0%
O=C(CCn1nnc2ccccc21)NNC(=O)C1CCCCC1 | -15 | 10 | 0.2 | 3 | -2.7 | 0.3%

New compounds follow
SMILES | TRPML1 blocker | Six1-Eya2 inh | TRPML1 agonist | CtBP-E1A blk | D2 ag | PINK1 expr mod
CC(OC(=O)CN(C)S(=O)(=O)c1ccc(Cl)cc1)C(=O)Nc1cccc(Cl)c1 (stereo not drawn) | 5 | 21 | -0.2 | 0 | -1.8 | -2.6%
COc1ccc(N2CCN(c3nc4ccccn4c(=O)c3/C=C(\C#N)S(=O)(=O)c3ccccc3)CC2)cc1 | -2 | -17 | -0.2 | -12 | 2.5 | 2.0%
Cc1cccc(-c2noc(CCc3ccccc3)n2)c1 | 5 | 65 | 1.9 | 74 | 4.6 | 11%
CC(C)c1ccc(NC(=S)NCCc2c[nH]c3ccccc23)cc1 | -12 | -23 | 3.1 | -17 | 4.8 | 21%
O=C(O)CCNc1nc(-c2ccccc2)c2cc(Br)ccc2n1 | 1 | -5 | 0.3 | nt | 0.1 | -0.4%
CCn1c(SC)nc2c([nH]c3ccccc32)c1=O | 18 | nt | 1.9 | nt | nt | -0.3%
C/C(=N\NC(=O)c1cccc(S(=O)(=O)Nc2ccccc2Cl)c1)c1ccco1 | -19 | -25 | 2.0 | -23 | 2.5 | 0.8%
O=C(COc1ccccc1)NC1CC(=O)N(c2ccc3c(c2)OCCO3)C1 (stereo not drawn) | 4 | nt | -0.7 | nt | nt | 0.4%
COCC1CCN(Cc2c(C(=O)N3CCOCC3)nc3c(C)cccn23)C1 (stereo not drawn) | 8 | 8 | 1.9 | 3 | -1.4 | -1.2%
C=CCSC1=N/C(=C\c2cc(OCC)c(OC(C)=O)c([N+](=O)[O-])c2)C(=O)S1 | -18 | -13 | 0.1 | -4 | -3.8 | 8.1%

Some of the entries so far, with each value named.
> CCOC(=O)c1sc(-c2ccc(F)cc2)cc1N
- TRPML1 blocker: 18
- Six1-Eya2 inh: 9
- TRPML1 agonist: 3.1
- CtBP-E1A blk: 9
- D2 ag: -2.0
- PINK1 expr mod: ?
> O=C(Nc1ncccc1O)c1cccc(S(=O)(=O)N2CCCC2)c1
- TRPML1 blocker: 0
- Six1-Eya2 inh: -1
- TRPML1 agonist: -0.2
- CtBP-E1A blk: 7
- D2 ag: 0.8
- PINK1 expr mod: -5.3%
> O=C(CCn1nnc2ccccc21)NNC(=O)C1CCCCC1
- TRPML1 blocker: -15
- Six1-Eya2 inh: 10
- TRPML1 agonist: 0.2
- CtBP-E1A blk: 3
- D2 ag: -2.7
- PINK1 expr mod: 0.3%
> C=CCSC1=N/C(=C\c2cc(OCC)c(OC(C)=O)c([N+](=O)[O-])c2)C(=O)S1
- TRPML1 blocker: -18
- Six1-Eya2 inh: -13
- TRPML1 agonist: 0.1
- CtBP-E1A blk: -4
- D2 ag: -3.8
- PINK1 expr mod: 8.1%

Source: PubChem (National Center for Advancing Translational Sciences (NCATS))
